TRPV1 potentiator = enhances activation of the human vanilloid receptor TRPV1. potentiation, % at 8.33 µM. TRPV1-expressing cells, Fluo-8 calcium influx, capsaicin EC20 potentiation; host cell line not named in the record; control for the full effect not named in the record. 0.02% of 320,000 active; active means potentiation above 80%; inconclusive means 30% to 80%; inactive means below 30%; further: 0% is about no effect
Target sequence (Q8NER1 whole entry, looked up): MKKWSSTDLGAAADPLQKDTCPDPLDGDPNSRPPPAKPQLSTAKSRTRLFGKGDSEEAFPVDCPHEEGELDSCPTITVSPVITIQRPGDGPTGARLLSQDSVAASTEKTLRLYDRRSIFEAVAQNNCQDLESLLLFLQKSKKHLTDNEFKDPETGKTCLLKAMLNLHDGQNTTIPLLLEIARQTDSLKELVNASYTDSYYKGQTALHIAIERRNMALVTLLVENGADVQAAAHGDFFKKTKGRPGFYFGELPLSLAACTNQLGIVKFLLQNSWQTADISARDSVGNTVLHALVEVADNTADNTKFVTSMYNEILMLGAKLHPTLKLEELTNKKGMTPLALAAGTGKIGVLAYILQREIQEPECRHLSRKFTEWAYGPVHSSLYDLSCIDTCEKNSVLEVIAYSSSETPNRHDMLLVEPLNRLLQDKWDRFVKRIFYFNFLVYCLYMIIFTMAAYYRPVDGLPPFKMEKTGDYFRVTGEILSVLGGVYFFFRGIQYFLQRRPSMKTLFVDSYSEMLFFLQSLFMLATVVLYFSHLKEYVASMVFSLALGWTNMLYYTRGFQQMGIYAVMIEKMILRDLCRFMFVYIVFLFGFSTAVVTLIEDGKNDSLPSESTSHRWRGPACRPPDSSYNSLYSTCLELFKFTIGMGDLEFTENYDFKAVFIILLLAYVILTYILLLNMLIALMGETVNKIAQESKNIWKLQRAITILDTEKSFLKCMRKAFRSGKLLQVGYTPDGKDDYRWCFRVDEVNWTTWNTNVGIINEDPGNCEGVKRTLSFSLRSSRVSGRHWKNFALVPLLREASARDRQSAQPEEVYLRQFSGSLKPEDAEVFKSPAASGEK
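TRPV1-expressing cells were cultured overnight at 35.5C and loaded with Fluo-8 calcium dye for 40 to 90 min at room temperature. After a 10 s baseline, compound was added and calcium influx was read kinetically for 3 min (ex 480/em 520 nm).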
Menin-MLL FL inh = menin-MLL binding inhibition, fluorescein peptide; Fluorescence polarization, fluorescein-MLL peptide displacement from menin; FP activity change, % at 61.4 µM; 290,000 tested, under 10 active; inconclusive = falling polarisation curve, or a change in total fluorescence; inactive = total fluorescence flat and polarisation flat or rising; no compound was filed as active; the % refers to the polarisation; negative = inhibition;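 further: % of control where 0% means no effect; inhibitors lower the polarisation; unlabelled MLL peptide was the positive control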
CtBP-E1A blk = inhibitors of CtBP/E1A interaction. AID 651724. 0.49% of 340,000 active. AlphaScreen GST-E1A/His-CtBP binding, 1536-well; hits give low values; control for the full effect not named in the record. activity change, % (test concentration not listed); in the data active means activity change below about -65%; inconclusive means about -30% to -65%; inactive means above about -30%; further: on the % scale 0 is the no-effect control and ±100 the full control effect; compound concentration not given in the record
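Protein mix (5X: 125 nM each GST-E1A, His-CtBP) was incubated with pinned compound 2 h at 37 deg C in dark, in 50 mM Tris pH 8.0 buffer with 300 mM NaCl. Glutathione donor and nickel acceptor beads followed; AlphaScreen signal read after 1 h.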
ClpP mod = qHTS Assay for Activators of ClpP; purified B. subtilis ClpP, FRET peptide cleavage, 20 min; ATP-dependent Clp protease proteolytic subunit (Bacillus subtilis (strain 168)), P80244; Potency, µM (titrated, usually from 57.5 µM), for inactives: at the highest dose activity change, negative = active; 1.9% of 340,000 active; AID 651965, 2013; active = well fitted falling curve with a large enough effect; inconclusive = small, poorly fitted or top-dose-only effect; inactive = no such curve, though single readings can be large or run the other way; further: potency means the concentration at half of the fitted maximal effect; the source files actives as falling curves though it sought activators and does not explain the sign; nearly all actives have a fitted effect of over 65% in size; many hits overshoot -100%
Target sequence (P80244 whole entry, looked up): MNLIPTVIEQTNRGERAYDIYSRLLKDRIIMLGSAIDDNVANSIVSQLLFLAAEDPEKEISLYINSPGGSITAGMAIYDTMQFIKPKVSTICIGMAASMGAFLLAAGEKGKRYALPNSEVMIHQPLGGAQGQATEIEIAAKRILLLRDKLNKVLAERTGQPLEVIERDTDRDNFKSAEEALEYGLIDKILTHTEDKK
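ClpP 10 microg/mL final, pH 8 Tris/KCl buffer with BSA, glycerol, Tween-20; compound pinned in; FRET-FV substrate; RT 20 min; Ex320/Em430; ΔFRET vs ADEP 5.8 microM, DMSO, no enzyme.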
gsp antag = antagonizes gsp, the McCune-Albright syndrome mutation. gsp-mutant cells, cAMP HTRF, 30 min; control for the full effect not named in the record. Potency, µM (doses to about 76.9 µM), for the others: at the highest dose activity change, negative = inhibition, most hits filed as inhibitors. 0.4% of 340,000 active; active = falling curve of any shape with a large fitted effect; inconclusive = falling curve, mostly with a smaller effect; inactive = flat or rising curve; cell line not stated here;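 further: intracellular cAMP measured with PDE inhibitor Ro 20-1724 present during compound exposure; potency means the concentration at half of the fitted maximal effect; on the % scale 0 is the no-effect control and ±100 the full control effect; nearly all actives have a fitted effect of over 65% in size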
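Measurement of cellular cAMP by homogeneous time-resolved fluorescence following a 30 min compound exposure at 37C. The PDE inhibitor […] was present throughout; the assay buffer was DPBS with 0.05% BSA and 0.005% Tween 20.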
gsp agonist = gsp mutant agonism. gsp mutant cells, cAMP HTRF, 30 min; control for the full effect not named in the record. Potency, µM (titrated, usually from 76.9 µM), for the others: top-dose activation (cAMP increase), hits mostly activators. 0.13% of 340,000 active; active = well fitted activation curve with a large enough effect; inconclusive = small, poorly fitted or top-dose-only effect, or another doubt; inactive = no such curve, though single readings can be large or run the other way; cell line not stated here;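 further: phosphodiesterase inhibitor Ro 20-1724 added with compounds to block cAMP breakdown; potency means the concentration at half of the fitted maximal effect; nearly all actives have a fitted effect of over 60% in size; about a fifth of the inactives were tested at one dose only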
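Cells in DMEM/10% FBS with G418 were pretreated with compounds in DMSO plus […] (300 uM stock) for 30 min at 37C. cAMP was measured by HTRF (cAMP-d2 plus anti-cAMP antibody-K) after 30 min at room temperature.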
Sfp inh = blocks B. subtilis Sfp PPTase activity; Q9F4F7; Biochemical Sfp PPTase activity, qHTS; Potency, µM, for inactives: max response, negative = inhibition, most hits filed as inhibitors; 3.5% of 310,000 active; active means well fitted inhibition curve with a large enough effect; inconclusive means small, poorly fitted or top-dose-only effect, or another doubt; inactive means no such curve, though single readings can be large or run the other way;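 further: the enzyme is Sfp with the accession as filed and its product quenches rhodamine fluorescence; potency means the concentration at half of the fitted maximal effect; 0% = enzyme reaction without inhibitor and -100% = no enzyme wells; top concentration of the series not given in the record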
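Step 1, compound plus 15 nM Sfp-PPTase, 15 min, room temperature. Step 2, add rhodamine-CoA (5 uM) and BHQ-2-YbbR (12.5 uM). Step 3, read 525/598 nm fluorescence at 0 and 30 min.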
* = called active by the depositor; u = inconclusive; x = no result given; & = joins results of further samples; [ ] = another dose, or the depositor's remark. Compounds as they come; overall some 5.3% were active at least once.

SMILES	TRPV1 potentiator	Menin-MLL FL inh	CtBP-E1A blk	ClpP mod	gsp antag	gsp agonist	Sfp inh
CC(C)c1ccccc1-n1c(-c2cccnc2)n[nH]c1=S	-23.6	5.9	3.9	0.1%	-7.5%	-0.6%[15.4 µM]	-12.2%
O=C(NC(=S)Nn1cnc2c(cnn2-c2ccccc2)c1=O)c1ccc(Cl)cc1	2.1	2.8	-8.1	x	u	2.6%[15.4 µM]	11.2%
Cc1ccc(/C=C/C(=O)OCC(=O)NC(=O)NCc2ccco2)cc1	4.9	x	-24.2	0.3%	10.2%	-3.6%	x
Cc1ccc(C(C(=O)NCc2ccccc2)N(C(=O)c2csnn2)c2cccc3ccccc23)o1 (configuration not stated)	-1.9	-0.8	-21.2	-7.9%	-37.9%	3.1%	-6.5%
Cc1noc(C)c1COC(=O)CNC(=O)c1cccc(F)c1	-0.6	0.3	-6.9	x	x	22.3%[15.4 µM]	-4.3%
O=S1(=O)N[C@@H](c2ccccc2)COc2cc(Br)ccc21	x	x	3.8	2.1%	x	10.2%	x
CC(C)(C)CN1CCNC(=O)C1CC(=O)NCCc1cnn(-c2ccccc2)c1 (configuration not stated)	4.7	-3.4	2.6	x	1.0%	12.9%[15.4 µM]	-4.1%
O=C(CC1C(=O)NCCN1C(=O)Nc1ccccc1)Nc1cccc(Cl)c1 (configuration not stated)	1.2	0.2	-3.3	-3.1%	11.4%	-8.7%	20.9%
O=C(CCCN1C(=O)/C(=C\c2cccs2)SC1=S)Nc1cc([N+](=O)[O-])ccc1O	0.6	-1.5	-27.9	-2.5%	-22.7%	7.3%	7.4%
CS(=O)(=O)NN1C(=O)c2ccccc2NC12CCCC2	4.4	0.0	16.7	x	6.8%	-8.5%	2.3%
CCCCC(=O)Nc1nc2c(OC)ccc(OC)c2s1	u	-8.8	-14.1	-3.1%	5.9%	6.7%	5.6%
CNC(=S)NNc1nncc2ccccc12	-4.7	1.5	6.1	x	-33.9%	4.4%[15.4 µM]	22.4µM*
CCOc1ccc(S(=O)(=O)N2CCCCC2)cc1NC(=O)c1cccnc1OCC	x	x	x	-3.8%	-0.7%	10.6%	x
N#CC1=C(S)N(c2ccccc2)C(c2ccc(-c3ccc(Cl)c(Cl)c3)o2)NC1=O (configuration not stated)	3.0	u	3.0	-9.3%	-1.9%	u	35.5µM*
COc1ccccc1NC(=O)CSc1nnc(-c2ccco2)n1N	-4.9	1.1	-0.7	-2.3%	4.5%	10.7%	-13.3%
COc1ccc(C(=O)C2C(c3ccc(-c4ccccc4[N+](=O)[O-])o3)NC(=O)NC2(O)C(F)(F)F)cc1 (configuration not stated)	2.3	4.5	-23.0	8.2%	-16.5%	-27.4%	-12.6%
CCOC(=S)SCC(=O)N1CCc2cc(OC)ccc2C1C1C(=O)CCCC1=O (configuration not stated)	-1.4	5.5	3.7	-2.1%	-0.7%	21.6%	-16.5%
Cc1cccc(C)c1NC(=O)/C(C#N)=C/c1ccc(-c2ccc(C(=O)O)cc2)o1	-0.2	8.2	-6.9	x	u	-1.0%[15.4 µM]	4.0%
COc1ccc2nc(-c3ccccn3)ccc2c1	x	x	2.1	4.2%	x	37.5%	x
O=c1[nH]c2ccccc2n1CCCN1CCN(C(c2ccccc2)c2ccccc2)CC1	6.3	2.2&-0.1	x	x	x	x	-10.7%&1.5%
CCCNc1nc2c(c(=O)[nH]c(=O)n2C)n1CCC(C)C	x	-2.5	2.0	1.1%	1.9%	15.1%	15.7%
CC(C)Oc1ccc(C2CC(=O)N(c3ccccc3)C2=O)cc1 (configuration not stated)	2.2	1.7	5.6	3.9%	-0.5%	-0.4%	10.4%
Oc1cccc(C=Nc2cccc3ccccc23)c1O	u	-0.2	-11.9	x	-14.3%	u	12.6µM*
COc1ccc(C(c2nnnn2C2CCCC2)N2CCc3ccccc3C2)cc1OC (configuration not stated)	-15.3	-2.1	-6.2	1.9%	-7.0%	-0.6%	-16.8%
COc1ccccc1C(=O)Cc1ccccc1	x	x	13.1	-10.5%	12.8%	2.9%	x
Cc1ccc(NC(=O)c2ccccc2O)cc1	0.2	2.5	9.6	-15.8%	-11.4%	-2.1%	8.8%
CCOC(=O)c1cccc(NS(=O)(=O)c2c(C(=O)N3CCCCCC3)c(C)n(C)c2C)c1	21.1	x	2.1	-1.6%	-1.0%	-36.9%	2.4%
CCn1cc(C(=O)NCCCN2CCC(C)CC2)c(=O)c2cc(S(=O)(=O)N(C)C3CCCCC3)ccc21	29.0	x	x	-2.5%&-2.9%	-7.7%	-19.5%	-6.4%
CC(C)COC(=O)c1cc(-c2ccc(/C=N/n3cnnc3)o2)ccc1Cl	-3.3	2.5	-1.4	-1.8%	7.6%	-44.6%[inhibitor]	-7.3%
COCCNC(=O)c1cccc(OC2CCN(Cc3ccc(Cl)c(F)c3)CC2)c1	21.5	3.5	8.4	-1.2%	-16.1%	-0.8%[15.4 µM]	25.3%
O=C(CCN1C(=O)/C(=C/c2ccccc2F)SC1=S)N[C@@H](CO)Cc1ccccc1	1.7	x	-19.8	x	-21.3%	-21.1%	-12.6%
COc1ccc(NC(=S)NCCc2c(C)[nH]c3ccc(OC)cc23)cc1	18.5	1.6	-23.9	x	-7.5%	-5.1%	5.6%
COc1ccc(CNC(=O)c2ccc(N3CCCC3=O)cc2)cc1	-0.7	0.0	-0.3	-2.8%	9.6%	7.6%	29.6%
CCCNC(=O)COC(=O)c1[nH]c(C)c(C(=O)OCC)c1C	3.8	5.8	0.5	1.7%	-7.4%	-22.5%	18.5%
Cc1ccccc1NC(=O)CC1c2ccccc2CC(C)(C)N1C (configuration not stated)	-4.8	-7.4	1.8	0.1%	8.4%	-23.8%	-7.0%
O=C(CNC(=O)c1cccs1)OCc1ccc(Cl)cc1	7.6	2.7	-0.7	x	6.9%	2.4%	10.6%
O=C(NC1CCC(O)CC1)C1CCN(S(=O)(=O)c2c(Cl)cccc2Cl)CC1 (configuration not stated)	-13.4	x	-15.3	-0.5%	10.3%	-8.8%	x
COc1cc2c(cc1OC)C(C(=O)NC1CC1)C1c3ccccc3CCN1C2=O (configuration not stated)	x	x	-1.2	-7.4%	6.5%	-23.9%	x
COc1ccc(OC)c(/C=C/C(=O)Oc2ccc(C(C)=O)cc2)c1	7.2	2.6	-88.3*	x	u	-10.6%[15.4 µM]	-6.1%
COc1ccc(CN(C)C(=O)CNC(=O)c2sc3ccccc3c2Cl)c(OC)c1	x	x	2.4	-11.8%	x	12.3%	x
CC(C)Cn1c(N)c(C(=O)CSc2ccccc2)c(=O)n(C)c1=O	6.6	-1.5	6.8	4.0%	u	7.5%	3.0%
O=C(NP(=O)(N1CCCC1)N1CCCC1)C1=C(N2CCOCC2)/C(=C/c2cccc([N+](=O)[O-])c2)CC1	-3.9	-1.9	-9.7	x	-17.7%	-0.8%[15.4 µM]	-5.7%
COc1ccc(NC(=O)COC(=O)c2ccc(S(=O)(=O)N3CCCC3)cc2)cc1OC	3.2	x	5.3	0.2%	2.3%	-2.2%	x
Cc1ccc(NC(=O)c2sc3nc[nH]c(=O)c3c2C)c(C)c1	11.0	6.4	-10.3	-5.2%	-4.9%	-52.2%[inhibitor]	-0.4%
CCOc1c2ccc(C(=O)NCc3ccc(OC(F)(F)F)cc3)cc2nn1C	14.7	-2.1	-3.6	4.5%	3.4%	u	10.8%
C#CCN(C[C@H]1[C@H](OC(=O)NCCCCCC)[C@H](OC(=O)NCCCCCC)C[C@@H](C(=O)OC)[C@H]1C(=O)OC)S(=O)(=O)c1ccc(C)cc1	x	x	3.2	-0.7%	x	-0.7%	x
Cc1cc(NC(=O)CN2CCN(c3ccccc3O)CC2)no1	2.0	0.0	3.7	-0.7%	-4.6%	-62.6%[inhibitor]	-3.4%
CCOC(=O)c1c(NC(=O)CSc2nnc(-c3cccnc3)o2)sc(C(C)=O)c1C	9.4	9.6	-4.3	0.6%	-29.8%	u	2.1%
Cc1ccc(SCc2noc(C(=O)NC(C)C)c2C(=O)O)cc1C	3.2	-0.4	-0.5	1.6%	-12.6%	x	-1.2%
COc1cccc2cc(C(=O)N3CCN(C(=O)c4ccco4)CC3)c(=O)oc12	u	1.0	-6.5	-1.7%	4.0%	0.6%	5.5%

Continued:
SMILES	TRPV1 potentiator	Menin-MLL FL inh	CtBP-E1A blk	ClpP mod	gsp antag	gsp agonist	Sfp inh
COc1ccc(C(=O)/C=C/C(=O)N(CC(=O)NC2CCCCC2)CC2CCCO2)c(O)c1 (configuration not stated)	0.2	-0.8	4.9	13.5%	u	-56.0%[inhibitor]	3.16µM*
Cc1ccc(C2=NOC(C)(c3sc(-c4ccc(Cl)cc4)nc3C)C2)cc1 (configuration not stated)	x	x	4.7	-29.6%	3.0%	x	x
O=C(Cc1ccccc1)Nc1ccc(NC(=O)Cc2ccccc2)c(Cl)c1	1.7	-5.8	7.2	-1.5%	-0.4%	6.0%[15.4 µM]	9.4%
COc1ccccc1NC(=O)c1sc2ncn(CC(=O)Nc3ccccc3)c(=O)c2c1C	7.2	11.7	8.6	x	-5.3%	9.1%[15.4 µM]	u
CC(C)N(C(=O)Cn1c(=O)oc2ccccc21)c1ccccc1	-18.5	-1.3	x	-1.6%	-6.4%	-5.7%	4.3%
O=C(Oc1ccccc1)N1CCCCC1	x	x	-10.6	-1.9%	x	10.6%	x
COc1ccc(CN(C)C(c2ccccc2)c2nnnn2-c2ccccc2C)c(OC)c1C (configuration not stated)	-1.5	-6.1	-2.3	-0.9%	-2.6%	11.1%	5.1%
C/C(=N\S(=O)(=O)c1ccc(C)cc1)Nc1cc(C(C)C)c(O)cc1C	2.7	0.7	2.3	x	-8.8%	-0.5%	9.5%
CSc1ccccc1C(=O)N1CCc2ccccc2C1	-1.6	0.8	3.8	0.4%	-2.3%	4.3%[15.4 µM]	9.4%

Shown with values under each structure: entries from further up.
Order of results – TRPV1 potentiator | Menin-MLL FL inh | CtBP-E1A blk | ClpP mod | gsp antag | gsp agonist | Sfp inh
> O=C(Cc1ccccc1)Nc1ccc(NC(=O)Cc2ccccc2)c(Cl)c1
    1.7 | -5.8 | 7.2 | -1.5% | -0.4% | 6.0%[15.4 µM] | 9.4%
> Cc1ccc(C2=NOC(C)(c3sc(-c4ccc(Cl)cc4)nc3C)C2)cc1 (configuration not stated)
    x | x | 4.7 | -29.6% | 3.0% | x | x
